# HIV TAR-Tat: HIV-1 TAR-Tat binding disruption | HIV-1 TAR RNA, Tat peptide displacement FRET; hits give high values | z-score (concentration not given with the values) | hit rate 0.6% among 100,000 | AID 1259389;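 note: score is relative to mean and SD of negative controls; some compounds called inactive have numbers as strong as hits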
# CDC25B-CDK2 inh: human CDC25B-CDK2/CyclinA binding inhibition; P30305+P24941; HTRF CDC25B-CDK2/CyclinA binding, anti-His/anti-Flag; hits give high values; z-score (test concentration not listed); hit rate 0.72% among 94,000; AID 1259370;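 note: score is relative to mean and SD of negative controls; strong numbers were not always called active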
# Starred values were filed as active, the others as inactive; · = no result given; & = joins results of further samples.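 Rule for the calls: active = z-score from 3 up in half or more of its runs; inactive = the rest.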 Rows were taken by chance; overall some 0.94% were active at least once.
smiles	HIV TAR-Tat	CDC25B-CDK2 inh
CCN1CNC(=S)N(Cc2ccccc2)C1	·	-1.32
CCCCN(CCNC(=O)c1cc2c(s1)-c1ccccc1SC2)Cc1ccco1	0.27	-0.19
O=C1COc2ccc(S(=O)(=O)N3CCN(c4cccc(Cl)c4)CC3)cc2N1	2.09	·
CCC(C)(C(=O)NC1CCCCC1)N(CC1CCCO1)C(=O)c1ccccn1 (configuration not stated)	·	-0.32
CSC(=S)N(C)c1nc2ccccc2s1	·	-1.62
CC(=O)c1cc([N+](=O)[O-])ccc1Sc1ccccn1	·	-0.66
Cc1ccc2nc(-c3cccs3)c(NC3CCCCC3)n2c1	-1.41	1.12
O=S(=O)(NCc1csc(-c2cccs2)n1)c1ccc(-c2ccon2)s1	·	0.26
O=C(COc1ccc(Br)cc1)Nc1cccnc1	0.42	-0.51
Cc1ccc(-c2cn3cccnc3n2)cc1NC(=O)Nc1ccc(Cl)cc1	·	-0.89
COc1ccc(OC)c(Nc2cc(C)nc3nc(-c4ccco4)nn23)c1	0.52	·
O=C(NC1CCCc2ccccc21)c1csc2c1CCCCC2 (configuration not stated)	-0.39	-2.46
CCCCN(C)c1c(-c2ccc(Cl)cc2)c(=O)c1=O	-0.4	·
COc1ccc(Br)cc1C1CC(=O)Nc2nc(SCc3ccc(C)cc3)[nH]c(=O)c21 (configuration not stated)	2.37	-1.94
COc1ccc(SCCc2nnc(SCC(=O)Nc3ccc(F)cc3)n2C2CC2)cc1	·	-1.89
CC(=O)n1cc(-c2nsc(Nc3ccccc3)n2)c(C)n1	·	0.28
Cc1ccc(/C=C/c2nc(-c3ccccc3O)n[nH]2)o1	-2.17	-1.67
CC1CC(C)CN(C(=O)C(=O)Nc2ccc3nc4n(c(=O)c3c2)CCCCC4)C1 (configuration not stated)	·	-0.42
C=CCn1c(SCC(=O)Nc2ccc3c(c2)OCO3)nc2sc3c(c2c1=O)CCC3	·	-2.79
CCOC(=O)c1cc[n+](CC(=O)c2ccc(OC)cc2)cc1	·	-0.46
Cc1ccccc1NC(=O)C(C)SC1=Nc2ccccc2C2=NC(C(C)C)C(=O)N12 (configuration not stated)	-0.06	·
Cc1ccc(-c2nnc3c4ccccc4c(C)nn23)cc1S(=O)(=O)N1CCOCC1	·	-0.34
O=C(Cn1cnc(S(=O)(=O)N2CCCCC2)c1)Nc1nccs1	-0.67	·
CCOC(=O)N1CCN(c2nn3nnnc3c3ccccc23)CC1	1.8	-1.39
CCC(=O)N1c2ccc(S(=O)(=O)N(CC)CC)cc2CC1C (configuration not stated)	0.19	·
CCOC(=O)C(=CNNc1ccccc1)C(=O)OCC	·	0.99
CC(C)c1nnc(NC(=O)Nc2ccccc2)s1	1.79	-1.17
O=C(NCc1ccsc1)C1CCCCN1 (configuration not stated)	·	-1.91
Cc1ccc(C)c(N2CCN(C(=O)C(C)n3nc(C)n4c(cc5occc54)c3=O)CC2)c1 (configuration not stated)	2.58	-1.44
COc1ccc(Nc2ncnc3ccc(OC)cc23)cc1	0.74	·
CC1CCCCC1NC(=O)CN(C)S(=O)(=O)c1ccc2c(c1)C(C)(C)C(=O)N2C (configuration not stated)	1.18	·
CCN(CC)CCNC(=O)c1noc2c1CCc1sccc1-2	0.16	·
Cc1ccc(-c2n[nH]c3c2C(c2ccccc2)N(c2ccc(C(=O)O)cc2)C3=O)cc1 (configuration not stated)	1.8	·
CCC(C)NS(=O)(=O)c1cc2c(cc1Cl)NC(=O)CO2 (configuration not stated)	-5.27	·
Cc1ccc(C)c(-c2nc3ccc(N)cc3[nH]2)c1	0.36	-2.3
O=C1CC(c2ccccc2Cl)C2=C(CCCC2=O)N1 (configuration not stated)	1.21	2
COc1ccccc1OCC(=O)N(C)C(c1cccs1)c1c[nH]c2ccccc12 (configuration not stated)	-1.19	-0.15
S=c1[nH]c2cc(Cl)ccc2o1	·	-1.06
O=C(NC1COc2ccccc2C1)N1CCN(c2ccccn2)CC1 (configuration not stated)	1.43	·
COc1cc(NC(=O)C2=Cc3sc4c(c3CS2)CCCC4)cc(OC)c1	-5.61	·
O=C1CCSc2ccc(S(=O)(=O)N3CCN(c4ccccc4F)CC3)cc2N1	1.47	·
Cc1cc(C)n(-c2cc(NCc3ccc(F)cc3Cl)ncn2)n1	-0.05	·
Cc1cc(-c2ccc(S(=O)(=O)Nc3ccccc3)s2)n[nH]1	0.88	·
CC(C)CCNS(=O)(=O)c1cc2c3c(c1)CC(=O)N3CCC2	1.18	·
CCN1CCN(C2=NS(=O)(=O)C(c3ccc(F)cc3)=C2C)CC1	0.28	·
CCCCCCC#Cc1cncc(NC(=O)N2CCN(c3ccccc3)CC2)c1	·	-3.87
CCCCNC(=O)CSc1nc2ccccc2c2nc(CCc3c[nH]c4ccccc34)nn12	1.64	·
O=C(COC(=O)C1CCN(S(=O)(=O)c2cccc3cccnc23)CC1)c1ccccc1	·	-6.93
O=C(Nc1ccc(C(=O)NCC2CCCO2)cc1)C1=CSCCO1 (configuration not stated)	0.76	·
Cc1c(Cl)cccc1N1C(=O)C2C(c3ccccc3)OC3(C(=O)c4ccccc4C3=O)C2C1=O (configuration not stated)	-0.23	-0.72
CN(Cc1ccco1)C(=O)CN1C(=O)CSc2ccc(S(=O)(=O)N3CCCC3)cc21	0.7	·
Cc1ccccc1NC(=O)NCc1ccccc1	·	-0.89
CCN1CCN(C(=O)c2cnc(N3CCOCC3)nc2C)CC1	1.82	·
Cc1ccc(Nc2nc3ccc(C)cc3n3nnnc23)c(C)c1	-1.03	-2.96
CCOC(=O)c1cc(S(=O)(=O)NCc2ccc3c(c2)OCO3)[nH]n1	3.04	·
CC1Cc2cc(S(=O)(=O)NCC3CCC(C(=O)N4CCCC4)CC3)ccc2N1C(=O)C1CC1 (configuration not stated)	1.56	·
CCc1ccc(C(=O)N2CCN(c3ccc(F)cc3)CC2)cc1	·	-0.77
O=C(CN1c2ccccc2S(=O)(=O)c2ccccc21)N1CCc2ccccc2C1	-0.02	·
CC1(C)Cc2nc3sc(C(=O)NCCO)c(N)c3cc2CO1	0.01	-1.35
O=S(=O)(c1ccc(F)c(Cl)c1)N1CCC(N2CCOCC2)CC1	0.88	·

# New compounds follow
Compound	HIV TAR-Tat	CDC25B-CDK2 inh
CCOC(=O)C1=C(C)NC2=C(C(=O)CC(C)(C)C2)C1c1cccc(O)c1 (configuration not stated)	3	-0.71
COc1ccc(-n2nc(C(=O)NCC(=O)NC(C)C)c3ccccc3c2=O)cc1	·	-0.16
CN(Cc1ccccc1)C(=O)C1=Cc2ccccc2OC1	-0.01	·
Cc1ccc(-c2nc(SCc3cc(=O)c4cccc(F)c4[nH]3)n[nH]2)cc1	1.68	·
O=S(=O)(Nc1ccccc1Cl)c1ccc2[nH]c3c(c2c1)CCCC3	-3.67	·
COc1cccc(/C=C/c2nc(C#N)c(N3CCOCC3)o2)c1	1.32	-1.73
O=C(O)/C=C/C(=O)NN=C(c1ccccc1)c1ccccc1	·	-0.52
O=C(Oc1ccc(Br)cc1)c1cc(-c2cccs2)on1	2.59	-0.06
CCOC(=O)c1nc(NC(C)C(=O)N2CCCCC2)c2oc3ccccc3c2n1 (configuration not stated)	2.12	·
O=C(CSc1ccc2nnc(-c3ccccc3)n2n1)NC1CCCC1	·	-2.47
Cn1cc(Cc2nnc(NC(=O)CSc3ccccc3)s2)c2ccccc21	1.53	·
Fc1cc(F)cc(CN2CCc3nc(Nc4ccc5c(c4)OCCO5)ncc3C2)c1	0.65	·
O=C(NC1CCCC1)c1cc(-c2ccc(F)cc2)no1	2.12	·
O=C(Nc1cccc(F)c1)c1cnc2sc3c(n2c1=O)CCCC3	1.25	·
CC(CCc1ccco1)N(C)C(=O)Cn1c(=O)oc2ccccc21 (configuration not stated)	1.25	·
OCc1ccccc1CN1CCOCC1	2.28	-1.1
Cc1[nH]nc(SCC(=O)O)c1[N+](=O)[O-]	0.41	-2.27
Cc1noc(C)c1S(=O)(=O)N1CCCC(C(=O)N2CCN(c3ccccn3)CC2)C1 (configuration not stated)	1.3	-0.4
CN(Cc1ccccc1)Cc1nnc(-c2ccccc2)o1	-0.14	-2.03
Cn1c(=O)[nH]c(=O)c2c1nc(N1CCNCC1)n2Cc1ccccc1	·	-0.55
CCn1ccc(C(=O)Oc2ccc(Cl)cc2)n1	-0.85	-1.47
Cc1cccc(C2N(c3ccc(F)cc3)C(=O)C3CCCN32)c1 (configuration not stated)	-0.88	-0.18
COc1cccc(Cn2cc3c(-c4ccc(OC)c(OC)c4)nnc-3c3cc4c(cc32)OCCO4)c1	5.09*	2.8
Cc1cc(=O)n2c(nc3ccccc32)[nH]1	·	-0.4&-1.16&-1.19
O=C(CCCCn1c(=S)[nH]c2c(sc3ccccc32)c1=O)NCC1CCCO1 (configuration not stated)	·	-1.09

# Reprinted at random: 6 compounds from above, in no set order.
Compound	HIV TAR-Tat	CDC25B-CDK2 inh
O=C(Nc1ccc(C(=O)NCC2CCCO2)cc1)C1=CSCCO1 (configuration not stated)	0.76	·
Cc1cc(C)n(-c2cc(NCc3ccc(F)cc3Cl)ncn2)n1	-0.05	·
Cc1ccc(C)c(-c2nc3ccc(N)cc3[nH]2)c1	0.36	-2.3
Cc1c(Cl)cccc1N1C(=O)C2C(c3ccccc3)OC3(C(=O)c4ccccc4C3=O)C2C1=O (configuration not stated)	-0.23	-0.72
CC(=O)c1cc([N+](=O)[O-])ccc1Sc1ccccn1	·	-0.66
O=C1CCSc2ccc(S(=O)(=O)N3CCN(c4ccccc4F)CC3)cc2N1	1.47	·

# (listing goes on)
Compound	HIV TAR-Tat	CDC25B-CDK2 inh
O=S(=O)(Nc1cccc(-c2ccc(N3CCCC3)nn2)c1)c1ccc(F)cc1F	1.22	·
CCN(Cc1ccccc1)S(=O)(=O)C1CCS(=O)(=O)C1 (configuration not stated)	0.91	-1.42
N#Cc1c(N)nc2c(c1-c1ccc3c(c1)OCO3)CCCC2	·	-2.2
Cc1cc(F)ccc1S(=O)(=O)NCCc1csc2nc(-c3cccs3)nn12	1.53	·
CC(C)NC(=O)N1CCC(CN2CCOCC2)CC1	1.97	-1.39
COc1ccc(-c2cc(-c3nc(-c4ccccc4F)no3)[nH]n2)c(OC)c1	0.72	·
O=C(CCC(=O)N1CCOc2ccccc21)N1CCN(c2ncccn2)CC1	-1.12	-0.72
Cn1nc(C(=O)N2CCN(Cc3ccc4c(c3)OCO4)CC2)c2c1-c1ccsc1CC2	-0.1	·
C=CCN[C@H]1CS(=O)(=O)C[C@@H]1S(=O)(=O)c1ccc(OC)cc1	2.32	-1.64
COc1ccc(N2CCN(c3cnn(-c4nc5ccccc5s4)c(=O)c3Cl)CC2)cc1	0.42	0.44
CN(C)c1ccc(C2N=C(N)Nc3nc4ccccc4n32)cc1 (configuration not stated)	0.57	-2.79
Cc1ccn2c(NC3CCCCC3)c(-c3cccnc3)nc2c1	-2.82	-3.41
CCOC(=O)C1=C(C)NC2=C(C(=O)CC(C)(C)C2)C1c1ccccc1 (configuration not stated)	0.67	0.71
Cc1nc(SCc2cc(=O)c3ccccc3[nH]2)n[nH]1	-1.52	·
COc1ccccc1C(=O)CC1(O)C(=O)N(Cc2cccc(F)c2)c2ccccc21 (configuration not stated)	-1.65	-1.36
CCC1CCCCN1C(=O)c1cc2c(s1)-c1ccccc1OC2 (configuration not stated)	0.48	0.51
O=C(c1ccc(Br)cc1)N(Cc1ccco1)c1ccccn1	0.79	-0.67
Cc1cc(C)nc(N/C=C(\C#N)S(=O)(=O)c2ccc(Cl)cc2)n1	·	-2
COCCCNC(=O)C1CCCN(S(=O)(=O)N2CCC(C)CC2)C1 (configuration not stated)	1.46	·
CCOc1ccc(-c2nn3c(-c4ccccc4OC)nnc3s2)cc1	1.46	0.71
COCCCNc1nc(N)c([N+](=O)[O-])c(N2CCCCC2)n1	0.63	·
CCc1cc2c(NC3CC3)ncnc2s1	1.75	·
CCOC(=O)c1c(S(=O)(=O)N2CCCC(C(=O)NC3CCCC3)C2)c(C)n(CC)c1C (configuration not stated)	2.17	·
Cc1ccc(-c2coc3cc4oc(=O)c5c(c4cc23)CCC5)cc1	·	-1.32
CC(C)NC(=O)N1CCn2cccc2C1C(C)C (configuration not stated)	0.09	·
FC(F)(F)c1nnc2sc(COc3ccc(Br)cc3)nn12	1.13	-0.97
COc1cc(OC)c(NC(=O)N2CCC(CN3CCc4ccccc4C3)CC2)cc1Cl	1.48	·
CC(=O)Nc1ccc(C2CCCCC2)cc1	·	-1
CCCCC(=O)N(c1ccc2oc(=O)sc2c1)S(=O)(=O)c1cc(OC)ccc1OC	1.25	-3.84
C=CCOC(=O)C1=C(C)NC2=C(C(=O)CCC2)C1c1ccccc1OC(C)C (configuration not stated)	0.22	-1.26
CCN(CC)C(=O)N1c2ccccc2Sc2ccccc21	4.11	-2.32
Cn1c(=O)c([N+](=O)[O-])c(O)c2c(=O)n(-c3ccccc3)c(=O)n(-c3ccccc3)c21	·	0.17
O=C1c2cccnc2C(=O)N1Cc1ccc(S(=O)(=O)Nc2ccc(F)cc2)s1	1.48	·

# As entered above.
# FC(F)(F)c1nnc2sc(COc3ccc(Br)cc3)nn12 in CDC25B-CDK2 inh is listed with -0.97
# CCCCC(=O)N(c1ccc2oc(=O)sc2c1)S(=O)(=O)c1cc(OC)ccc1OC in HIV TAR-Tat is listed with 1.25
# COc1cc(OC)c(NC(=O)N2CCC(CN3CCc4ccccc4C3)CC2)cc1Cl in HIV TAR-Tat is listed with 1.48
# Cn1c(=O)c([N+](=O)[O-])c(O)c2c(=O)n(-c3ccccc3)c(=O)n(-c3ccccc3)c21 in CDC25B-CDK2 inh is listed with 0.17
# O=C1c2cccnc2C(=O)N1Cc1ccc(S(=O)(=O)Nc2ccc(F)cc2)s1 in HIV TAR-Tat is listed with 1.48
# C=CCOC(=O)C1=C(C)NC2=C(C(=O)CCC2)C1c1ccccc1OC(C)C (configuration not stated) in CDC25B-CDK2 inh is listed with -1.26

# Screening results: PubChem, Center for Chemical Genomics, University of Michigan
